# Screening results as filed in PubChem BioAssay.
# UUG fidelity: modulators of yeast start codon fidelity, primary screen, whole organism, S. cerevisiae, single point, plate reader; AID 602363, 2012; activity score, % at 18.7 µM; 350,000 compounds, 0.13% hits; S. cerevisiae UUG-firefly luciferase reporter, luminescence/redox ratio;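 active = replicate mean at a twofold rise or more, about +100% in these data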;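 also: firefly luciferase made from a UUG start codon reports start codon fidelity; reporter light over untreated wells divided by growth signal over untreated wells; some hits fall short of that in this replicate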
# HIV Env fusion: inhibitors of HIV-1 Env-driven cell-cell fusion, primary screen, HeLa-JRFL effector, CEM21 target cells, luciferase | inhibition, % at 12.3 µM | 360,000 compounds, 1.1% hits | AID 651610, 2012;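 active = mean replicate inhibition score of at least 50 and every replicate individually at or above 50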;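 also: 0% = plate neutral controls and 100% = maraviroc near 300 nM; one replicate is shown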
# Starred values were filed as active, the others as inactive; [ ] = remark or other dose. Not all compounds are listed; count on the stated rates, not on these rows.
SMILES | UUG fidelity | HIV Env fusion
CCCC#Cc1cnc2c(c1)C(=O)N([C@H](C)CO)C[C@H](C)[C@H](CN(C)C(=O)Nc1ccccc1F)O2 | 23.7 | -10.0[16.7 µM]
C[C@H](NC(=O)C[C@@H]1C[C@H]2c3cc(NS(C)(=O)=O)ccc3O[C@H]2[C@@H](CO)O1)c1ccccc1 | -8.1 | -3.9[16.7 µM]
C[C@H](CO)N1C[C@H](C)[C@H](CN(C)Cc2cccc(F)c2)Oc2ncc(C#C[C@@H](C)O)cc2C1=O | -8.3 | 15.5[16.7 µM]
C[C@@H]1CCCCO[C@H](CN(C)S(=O)(=O)c2cccs2)[C@H](C)CN([C@@H](C)CO)C(=O)c2cc(NC(=O)Nc3ccc(F)cc3)ccc2O1 | 1.6 | -37.0[16.7 µM]
C[C@@H]1CN([C@@H](C)CO)C(=O)CCCn2cc(nn2)CO[C@H]1CN(C)C(=O)NC1CCCCC1 | 12.0 | -6.4[16.7 µM]
COCCNC(=O)C[C@H]1C=C[C@@H](NC(=O)NC2CCCC2)[C@H](CO)O1 | -14.6 | 1.9[16.7 µM]
Cc1ccc(S(=O)(=O)Nc2cccc3c2O[C@H](CN(C)C(=O)Nc2ccccc2)[C@@H](C)CN([C@@H](C)CO)C3=O)cc1 | 9.4 | -14.7[16.7 µM]
C=CCOC(=O)[C@@H]1[C@H]2C(=O)O[C@H](c3ccccc3)[C@H](c3ccccc3)N2[C@H](c2ccc(OCCOC(=O)[C@@H]3C[C@@H]4C(=O)NCC(=O)N4[C@@H]3c3ccc(O)cc3)cc2)[C@@]12C(=O)Nc1ccc(I)cc12 | -13.5 | -38.6[16.7 µM]
COc1ccccc1CNC(=O)C[C@@H]1CC[C@@H]2[C@@H](COc3ccc(NC(C)=O)cc3C(=O)N2C)O1 | 0.9 | -16.8[16.7 µM]
CC(C)NC(=O)N(C)C[C@H]1Oc2ccc(NS(=O)(=O)c3cccs3)cc2CC(=O)N([C@@H](C)CO)C[C@H]1C | 2.5 | -9.6[16.7 µM]
CC(C)NC(=O)N(C)C[C@@H]1Oc2c(NS(C)(=O)=O)cccc2C(=O)N([C@@H](C)CO)C[C@@H]1C | -16.9 | -0.2[16.7 µM]
COc1ccc(NC(=O)N(C)C[C@@H]2OCCCC[C@H](C)Oc3ccc(NC(=O)c4ccncc4)cc3C(=O)N([C@H](C)CO)C[C@H]2C)cc1 | -1.4 | -7.6[16.7 µM]
COC(=O)C[C@H]1CC[C@@H]2[C@@H](COc3ccc(NC(=O)c4cccc(OC)c4)cc3C(=O)N2C)O1 | -1.3 | -2.6[16.7 µM]
CN(C)CCCNC(=O)C[C@@H]1CC[C@@H](NC(=O)c2ccccc2F)[C@@H](CO)O1 | -20.2 | -2.5[16.7 µM]
C[C@@H]1CN([C@H](C)CO)C(=O)c2cccc(NS(=O)(=O)c3ccccc3)c2O[C@@H]1CN(C)C(=O)Nc1ccccc1 | -11.1 | 3.7[16.7 µM]
C[C@H](CO)N1C[C@H](C)[C@@H](CN(C)C(=O)Nc2ccc(F)cc2)OCCCC[C@H](C)Oc2ccc(N(C)C)cc2C1=O | -4.6 | -62.0[16.7 µM]
CN(C)CC(=O)N1[C@@H](C#N)[C@@H](c2ccc(C#CC3CC3)cc2)[C@@H]1CO | 6.2 | -6.8[16.7 µM]
COCC#Cc1cnc2c(c1)C(=O)N([C@H](C)CO)C[C@H](C)[C@@H](CN(C)C(=O)Nc1ccccc1F)O2 | 11.8 | 27.8[16.7 µM]
C[C@@H]1CN([C@@H](C)CO)S(=O)(=O)c2ccc(C#Cc3cccc(F)c3)cc2O[C@H]1CN(C)C | 20.8 | 22.5[16.7 µM]
COc1ccc(C#Cc2cnc3c(c2)C(=O)N([C@H](C)CO)C[C@H](C)[C@H](CN(C)C)O3)cc1OC | 17.9 | 10.3[16.7 µM]
COc1cccc(S(=O)(=O)N2C[C@@H](O)COC[C@@H]3O[C@@H](CC(=O)NCCCN4CCOCC4)CC[C@H]32)c1 | -8.2 | -19.3[16.7 µM]
C[C@H](CO)N1C[C@H](C)[C@H](CN(C)C(=O)Nc2ccc3c(c2)OCO3)Oc2c(NC(=O)Nc3cccc4ccccc34)cccc2C1=O | 3.2 | -2.0[16.7 µM]
CCNC(=O)C[C@@H]1CC[C@H]2[C@@H](COc3ccc(NC(=O)Nc4cccc(F)c4)cc3C(=O)N2C)O1 | 3.4 | 31.9[16.7 µM]
C[C@H]1CN([C@@H](C)CO)C(=O)c2cc(C#CCN(C)C)cnc2O[C@@H]1CN(C)C(=O)Cc1ccncc1 | -9.9 | 54.7[16.7 µM]
C/C=C/c1cnc2c(c1)C(=O)N([C@H](C)CO)C[C@H](C)[C@H](CN(C)C(=O)Nc1ccccc1F)O2 | -1.0 | -8.2[16.7 µM]
O=C(N[C@H]1CC[C@@H](CCNS(=O)(=O)c2ccccc2)O[C@H]1CO)c1cccnc1 | -10.5 | -14.5[16.7 µM]
COc1ccc(NC(=O)Nc2ccc3c(c2)CC(=O)N([C@H](C)CO)C[C@@H](C)[C@@H](CN(C)Cc2ccc(C(F)(F)F)cc2)O3)cc1 | 12.2 | 19.7[16.7 µM]
CO[C@H]1CN(C)C(=O)c2cc(NC(=O)NC(C)C)ccc2OC[C@H](C)N(C(=O)CN(C)C)C[C@@H]1C | -1.6 | -2.1[16.7 µM]
C[C@@H]1CN([C@H](C)CO)C(=O)Cc2cc(NC(=O)Nc3ccc4c(c3)OCO4)ccc2O[C@H]1CN(C)S(=O)(=O)c1cccs1 | -12.0 | 8.9[16.7 µM]
CN1C(=O)c2cc(NC(=O)c3ccc(F)c(F)c3)ccc2OC[C@H]2O[C@H](CC(=O)N3CCCCC3)CC[C@H]21 | 5.0 | 28.9[16.7 µM]
C/C=C/c1cnc2c(c1)C(=O)N([C@H](C)CO)C[C@@H](C)[C@@H](CN(C)C(=O)Cc1ccccn1)O2 | -1.4 | -1.7[16.7 µM]
COc1ccc(S(=O)(=O)N(C)C[C@@H]2Oc3ccc(NS(=O)(=O)c4ccc(C)cc4)cc3CC(=O)N([C@@H](C)CO)C[C@@H]2C)cc1 | 2.1 | 10.4[16.7 µM]
COc1cccc(CNC(=O)C[C@@H]2CC[C@@H](NS(=O)(=O)c3ccccc3OC)[C@H](CO)O2)c1 | -3.5 | 15.5[16.7 µM]
C[C@@H]1CN([C@H](C)CO)C(=O)c2cc(N(C)C)ccc2O[C@@H](C)CCCCO[C@@H]1CN(C)Cc1ccc2c(c1)OCO2 | 29.4 | -3.9[16.7 µM]
Cc1ccc(S(=O)(=O)N(C)C[C@H]2Oc3ccc(NC(=O)Nc4ccc(F)cc4)cc3CC(=O)N([C@@H](C)CO)C[C@@H]2C)cc1 | -9.9 | 0.6[16.7 µM]
COc1ccc(S(=O)(=O)Nc2ccc3c(c2)C(=O)N([C@H](C)CO)C[C@H](C)[C@@H](CN(C)S(=O)(=O)c2ccc(F)cc2)OCCCC[C@H](C)O3)cc1 | -6.4 | 7.0[16.7 µM]
C[C@H]1CN([C@@H](C)CO)C(=O)Cc2cc(NC(=O)NC3CCCCC3)ccc2O[C@H]1CN(C)S(=O)(=O)c1cccs1 | 12.9 | 56.2*[16.7 µM]
C[C@H]1CN([C@@H](C)CO)C(=O)c2cc(NC(=O)NC3CCCCC3)ccc2O[C@H]1CN(C)C(=O)Nc1ccc2c(c1)OCO2 | 6.7 | -7.6[16.7 µM]
O=C(NCC[C@H]1CC[C@H](NS(=O)(=O)Cc2ccccc2)[C@@H](CO)O1)C1CC1 | -5.7 | -1.7[16.7 µM]
C[C@H](CO)N1C[C@H](C)[C@@H](CN(C)C(=O)c2cccnc2)Oc2ncc(C3=CCCC3)cc2C1=O | -10.1 | -41.5[16.7 µM]
CC(C)c1cn(CC[C@H]2CC[C@H](NC(=O)C3CCCC3)[C@H](CO)O2)nn1 | 3.1 | 14.6[16.7 µM]
C/C=C/c1ccc2c(c1)O[C@H](CN(C)Cc1ccc(F)cc1)[C@H](C)CN([C@H](C)CO)S2(=O)=O | -3.0 | 26.8[16.7 µM]
O=C(Nc1ccccc1)N[C@@H]1CC[C@@H](CCNS(=O)(=O)c2cccc(F)c2)O[C@H]1CO | 20.4 | -13.6[16.7 µM]
C[C@H](CO)N1C[C@H](C)[C@H](CN(C)S(C)(=O)=O)Oc2ncc(C#CC3CCCCC3)cc2C1=O | 18.4 | 4.9[16.7 µM]
C[C@@H]1CN([C@H](C)CO)C(=O)c2cc(NS(C)(=O)=O)ccc2O[C@@H](C)CCCCO[C@@H]1CN(C)C | 8.8 | -1.0[16.7 µM]
Cc1noc(C)c1S(=O)(=O)Nc1ccc2c(c1)C(=O)N([C@H](C)CO)C[C@@H](C)[C@@H](CN(C)CC1CCCCC1)OCCCC[C@@H](C)O2 | 9.0 | -16.7[16.7 µM]
C[C@H]1CN([C@@H](C)CO)C(=O)Cc2cc(NC(=O)c3ccncc3)ccc2O[C@@H]1CN(C)CC1CC1 | -9.3 | -0.5[16.7 µM]
C/C=C/c1ccc2c(c1)O[C@H](CN(C)C(=O)c1ccc(F)cc1)[C@H](C)CN([C@H](C)CO)S2(=O)=O | 6.5 | -25.2[16.7 µM]
C[C@@H]1CN([C@@H](C)CO)C(=O)c2cc(C#CC3CC3)cnc2O[C@@H]1CN(C)Cc1ccncc1 | -9.8 | 3.7[16.7 µM]
C[C@H](O)C#Cc1ccc2c(c1)O[C@H](CN(C)CC1CCOCC1)[C@@H](C)CN([C@@H](C)CO)S2(=O)=O | -1.2 | -19.7[16.7 µM]

# The listing continues.
SMILES | UUG fidelity | HIV Env fusion
Cc1ccc(S(=O)(=O)Nc2cccc3c2O[C@@H](CN(C)Cc2ccc4c(c2)OCO4)[C@@H](C)CN([C@@H](C)CO)C3=O)cc1 | -0.4 | -48.3[16.7 µM]
CCC(=O)N[C@@H]1C=C[C@@H](CC(=O)NCCN2CCCCC2)O[C@H]1CO | -16.5 | 6.4[16.7 µM]
C[C@H]1CN([C@@H](C)CO)C(=O)CCCn2cc(nn2)CO[C@H]1CN(C)C(=O)Nc1ccnc(N2CCOCC2)c1 | -1.1 | -8.8[16.7 µM]
COc1ccc(NC(=O)Nc2cccc3c2O[C@H](CN(C)S(=O)(=O)c2ccc(F)cc2)[C@H](C)CN([C@@H](C)CO)C3=O)cc1 | -7.2 | -17.0[16.7 µM]
COCC#Cc1ccc2c(c1)O[C@@H](CN(C)Cc1cccnc1)[C@@H](C)CN([C@@H](C)CO)S2(=O)=O | 154.0* | -34.0[16.7 µM]
C[C@@H]1CN([C@@H](C)CO)C(=O)Cc2cc(NC(=O)CCC(F)(F)F)ccc2O[C@@H]1CN(C)C(=O)Nc1ccc(C(F)(F)F)cc1 | -4.5 | 5.0[16.7 µM]
CN(C)CC(=O)Nc1ccc2c(c1)[C@H]1C[C@@H](CC(=O)NCC3CC3)O[C@@H](CO)[C@H]1O2 | 2.9 | -2.7[16.7 µM]
CO[C@H]1CN(C)C(=O)c2cc(NC(C)=O)ccc2OC[C@@H](C)N(Cc2nccs2)C[C@@H]1C | -4.3 | 3.5[16.7 µM]
COc1ccc(S(=O)(=O)N(C)C[C@@H]2OCCCC[C@H](C)Oc3ccc(NS(=O)(=O)c4cccs4)cc3C(=O)N([C@@H](C)CO)C[C@H]2C)cc1 | -15.2 | -201.9[16.7 µM]
C[C@H]1CN([C@@H](C)CO)C(=O)Cc2cc(NC(=O)C3CCCCC3)ccc2O[C@@H]1CN(C)Cc1ccc(C(=O)O)cc1 | -12.3 | -6.5[16.7 µM]
C/C=C/c1cnc2c(c1)C(=O)N([C@@H](C)CO)C[C@@H](C)[C@@H](CN(C)C(=O)C1CC1)O2 | -10.5 | 6.0[16.7 µM]
COc1ccc(S(=O)(=O)Nc2ccc3c(c2)C(=O)N([C@@H](C)CO)C[C@@H](C)[C@H](CN(C)S(=O)(=O)c2cn(C)cn2)OCCCC[C@@H](C)O3)cc1 | -4.2 | -4.5[16.7 µM]
C[C@H](CO)N1C[C@H](C)[C@@H](CN(C)S(=O)(=O)c2cccs2)Oc2ccc(NC(=O)Nc3ccc(F)cc3)cc2CC1=O | 17.1 | 0.2[16.7 µM]
O=S(=O)(N[C@@H]1CC[C@H](CCn2cc(C3(O)CCCC3)nn2)O[C@@H]1CO)c1ccccc1 | -3.2 | -0.6[16.7 µM]
CN1CCN(C(=O)C[C@@H]2C[C@@H]3c4cc(NC(=O)Nc5ccc(C(F)(F)F)cc5)ccc4O[C@@H]3[C@H](CO)O2)CC1 | -5.4 | 3.6[16.7 µM]
CC(=O)N(C)C[C@H]1Oc2ncc(C#C[C@@H](C)O)cc2C(=O)N([C@H](C)CO)C[C@H]1C | 1.9 | -23.3[16.7 µM]
C[C@H](CO)N1C[C@H](C)[C@@H](CN(C)CC2CC2)Oc2c(NC(=O)C3CCCCC3)cccc2C1=O | -10.9 | 18.1[16.7 µM]

# Ordered by heavy-atom count (largest number first): six of the compounds above
SMILES | UUG fidelity | HIV Env fusion
C[C@@H]1CCCCO[C@H](CN(C)S(=O)(=O)c2cccs2)[C@H](C)CN([C@@H](C)CO)C(=O)c2cc(NC(=O)Nc3ccc(F)cc3)ccc2O1 | 1.6 | -37.0[16.7 µM]
COc1ccc(NC(=O)Nc2ccc3c(c2)CC(=O)N([C@H](C)CO)C[C@@H](C)[C@@H](CN(C)Cc2ccc(C(F)(F)F)cc2)O3)cc1 | 12.2 | 19.7[16.7 µM]
C[C@H]1CN([C@@H](C)CO)C(=O)c2cc(NC(=O)NC3CCCCC3)ccc2O[C@H]1CN(C)C(=O)Nc1ccc2c(c1)OCO2 | 6.7 | -7.6[16.7 µM]
C[C@H](CO)N1C[C@H](C)[C@@H](CN(C)C(=O)c2cccnc2)Oc2ncc(C3=CCCC3)cc2C1=O | -10.1 | -41.5[16.7 µM]
COc1cccc(CNC(=O)C[C@@H]2CC[C@@H](NS(=O)(=O)c3ccccc3OC)[C@H](CO)O2)c1 | -3.5 | 15.5[16.7 µM]
CO[C@H]1CN(C)C(=O)c2cc(NC(C)=O)ccc2OC[C@@H](C)N(Cc2nccs2)C[C@@H]1C | -4.3 | 3.5[16.7 µM]
